High-throughput results deposited in PubChem by National Center for Advancing Translational Sciences (NCATS).
SARS PLP yeast: inhibitors of SARS-CoV papain-like protease in yeast | S. cerevisiae expressing SARS-CoV PLpro, growth rescue; control for the full effect not named in the record | Potency, µM (series often up to 32.9 µM), for inactives: top-dose activity, positive = growth rescue | actives 0.19% (n = 330,000); active means well fitted rising curve with a large enough effect; inconclusive means small, poorly fitted or top-dose-only effect; inactive means no such curve, though single readings can be large or run the other way; further: 0% is about no effect; nearly all actives have a fitted effect of over 55% in size; growth read by luminescence after 48 h
RE007 growth inh: less growth of the S. pombe RE007 Vpr strain. Potency, µM (doses to about 92.2 µM), for inactives: at the highest dose activity change, negative = less growth. AID 651644. actives 0.21% (n = 360,000). S. pombe RE007 Vpr strain, BacTiter-Glo ATP luminescence, 24 h; control for the full effect not named in the record; active = well fitted falling curve with a large enough effect; inconclusive = small, poorly fitted or top-dose-only effect; inactive = no such curve, though single readings can be large or run the other way;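 further: on the % scale 0 is the no-effect control and ±100 the full control effect; nearly all actives have a fitted effect of over 50% in size; the assay follows cell death caused by Vpr and the record does not say whether a fall means rescue or toxicity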
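Fission yeast strain RE007, carrying one chromosomally integrated HIV-1 vpr copy, was seeded at OD 0.01 in PMG+AL medium with 23 nL pinned compound. After 24 h at 30 °C and 99% humidity, viability was read by BacTiter-Glo luminescence.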
2A StopGo: lowers the luciferase signal of an FMDV 2A StopGo reporter. human cells with a luciferase reporter of 2A StopGo recoding; control for the full effect not named in the record. Potency, µM (series often up to 57.9 µM), inactives show at the highest dose signal change, negative = less light. AID 1159524. actives 1.2% (n = 410,000); active = well fitted falling curve with a large enough effect; inconclusive = small, poorly fitted or top-dose-only effect; inactive = no such curve, though single readings can be large or run the other way; tested in HEK293T cells; further: on the % scale 0 is the no-effect control and ±100 the full control effect; nearly all actives have a fitted effect of over 45% in size; luciferase light after 4 h
Lassa entry inh: Lassa virus entry inhibition. Lassa virus pseudotype entry inhibition, cell reporter; control for the full effect not named in the record. Potency, µM (top dose mostly 37.9 µM), inactives show at the highest dose activity change, negative = inhibition, actives largely listed as inhibitors. actives 1.2% (n = 300,000); active means well fitted inhibition curve with a large enough effect; inconclusive means small, poorly fitted or top-dose-only effect, or effect the other way; inactive means flat fitted curve, though single readings scatter; tested in HEK293 cells; further: on the % scale 0 is the no-effect control and ±100 the full control effect; nearly all actives have a fitted effect of over 50% in size; luciferase read-out
Cruzain noTriton: inhibitors of Trypanosoma cruzi cruzain without detergent; P25779; purified cruzain, Z-FR-AMC fluorescence, no detergent; Potency, µM, inactives show max response, negative = inhibition, hits mostly inhibitors; actives 2.3% (n = 200,000); AID 1476;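 further: plate controls were enzyme without inhibitor for no effect and buffer without enzyme for full effect; nearly all actives have a fitted effect of over 40% in size; top concentration of the series not given in the record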
Target sequence (P25779 123-467 limits assumed): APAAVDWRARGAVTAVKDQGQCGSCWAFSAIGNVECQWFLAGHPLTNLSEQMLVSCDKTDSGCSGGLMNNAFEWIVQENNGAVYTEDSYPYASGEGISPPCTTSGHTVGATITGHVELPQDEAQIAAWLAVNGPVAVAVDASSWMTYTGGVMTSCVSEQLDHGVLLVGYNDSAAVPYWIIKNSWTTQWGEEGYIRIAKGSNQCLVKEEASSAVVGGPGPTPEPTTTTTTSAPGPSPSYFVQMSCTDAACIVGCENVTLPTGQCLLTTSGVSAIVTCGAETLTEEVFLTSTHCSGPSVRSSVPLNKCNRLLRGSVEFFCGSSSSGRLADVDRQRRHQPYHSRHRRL
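Purified cruzain at 1.5 nM, pre-incubated 15 min with compound at room temperature in 100 mM sodium acetate pH 5.5, 5 mM DTT, 0.00005% Triton X-100. Reaction started with 2 uM Z-FR-AMC; AMC fluorescence increase over 60 s gives rate.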
Cruzain Triton: inhibitors of Trypanosoma cruzi cruzain with detergent; AID 1478; Potency, µM, without a hit: max response, negative = inhibition, hits mostly inhibitors; purified cruzain, Z-FR-AMC fluorescence, 0.01% Triton; actives 0.43% (n = 200,000); P25779;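 further: plate controls were neutral wells for no effect and buffer without enzyme for full effect; nearly all actives have a fitted effect of over 40% in size; top concentration of the series not given in the record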
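Read-out: AMC fluorescence (360 nm excitation, 450 nm emission), four reads over 2 min, first-to-third difference used. Conditions: cruzain 1.5 nM, Z-FR-AMC 2 uM, pH 5.5 acetate, 5 mM DTT, 0.01% Triton X-100.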
NS1 function inh: blocks influenza NS1 protein function. S. cerevisiae slowed by influenza A NS1, growth recovery by OD600. Potency, µM (top dose mostly 46.1 µM), without a hit: top-dose activity, positive = more growth. actives 0.4% (n = 270,000). AID 2326; active means well fitted rising curve with a large enough effect; inconclusive means small, poorly fitted or top-dose-only effect; inactive means no such curve, though single readings can be large or run the other way; further: nearly all actives have a fitted effect of over 50% in size
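Growth recovery, yeast-based: influenza A NS1 expressed in S. cerevisiae causes slow growth, and suppressors are detected by OD600. The parent strain without NS1 is used as positive control.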
Marburg entry inh: Marburg virus entry inhibition | Marburg virus pseudotyped entry inhibition, cell reporter; control for the full effect not named in the record; about a third of the inactives were read at about 46 µM | Potency, µM (series often up to 37.8 µM), for the others: top-dose activity change, negative = inhibition, actives largely listed as inhibitors | actives 1.8% (n = 300,000) | AID 540276; active = well fitted inhibition curve with a large enough effect; inconclusive = small, poorly fitted or top-dose-only effect, or effect the other way; inactive = flat fitted curve, though single readings scatter; tested in HEK293 cells; about a fifth of its hits are not listed in these tables; further: on the % scale 0 is the no-effect control and ±100 the full control effect; luciferase read-out
Starred values were filed as active, the others as inactive; ? = inconclusive; · = no result given; & = joins results of further samples; [ ] = dose if it differs, or a comment. Unless noted, the call rests on the fitted dose curve; in most records, active means well fitted curve in the direction sought with a large enough effect; inconclusive means small, poorly fitted or top-dose-only effect, or another doubt; inactive means no such curve, though single readings can be large; an effect the other way counts as inactive or inconclusive. Potency means the concentration at half of the fitted maximal effect.

SMILES	SARS PLP yeast	RE007 growth inh	2A StopGo	Lassa entry inh	Cruzain noTriton	Cruzain Triton	NS1 function inh	Marburg entry inh
COc1cc2c(cc1NC(=O)CSc1nc3ccccc3[nH]1)oc1ccccc12	-20%	10%	-3%	?	25µM*	6.0%	10%	21µM*
Cc1nc2ccc(NC(=O)c3ccc4ccccc4n3)cc2s1	4%	5%	9%	·	·	·	·	?
N#CCCn1nnc2ccccc21	-8%	14%	-15%	-5%	7%	5.8%	-5%	1%[46.1 µM]
CC(C)CC(=O)NC(=S)Nc1cccc(NC(=O)c2ccccc2)c1	-2%	-11%	-20%	0%	-6%	?	2%	-1%
O=C(N/C(=C/c1cccc(Br)c1)c1nc(=S)[nH][nH]1)c1ccccc1	-3%	-11%	4%	?	2%	-20%	22%	?
Cc1ccc(OCC(=O)NNC(=O)c2cc(C)[nH]n2)cc1	8%	5%	-10%	11%	-7%	4.1%	16%	4%
CC(=O)c1c(C)[nH]c(C(=O)OCc2ccc([N+](=O)[O-])cc2)c1C	1%	5%	8%	2%[46.1 µM]	·	·	1%	-4%[46.1 µM]
Cc1nonc1NC(=O)c1ccccc1Br	·	0%	?	24%	-2%	6.4%	26%	19%
COc1cccc(CN2CCN(Cc3nc(-c4cccs4)oc3C)CC2CCO)c1 (stereo not drawn)	-1%	-2%	-3%	·	·	·	1%	·
Cc1ccc(OCC(=O)Nc2sc3c(c2C#N)CCC3)cc1C	-1%	-15%	43%[activator]	-10%	-2%	-1.7%	3%	?
CC(C)(C)c1ccc(C(=O)NC(=O)COC(=O)c2ccco2)cc1	2%	-6%	-4%	5%	·	·	·	2%[46.1 µM]
C#CCONC(=O)c1cc(OCC(F)(F)F)ccc1OCC(F)(F)F	0%	6%	-4%	6%	-11%	-0.9%	7%	-8%
COc1ccccc1C(=O)Nc1ccc(C2=NNC(=O)CC2C)cc1 (stereo not drawn)	-15%	2%	-1%	-1%	-7%	-8.0%	7%	5%
COc1cccc(NC(=O)c2sc3ncn(CC(=O)N4CCN(c5ccccn5)CC4)c(=O)c3c2C)c1	-1%	-9%	-15%	·	·	·	-32%	·
COc1cc2cc(CN(Cc3cccnc3)C(=O)NCc3ccccc3)c(=O)[nH]c2cc1OC	-15%	-7%	-3%	-7%	?	-2.1%	-9%	-15%&-15%
Cn1c(Cl)cnc1C1CC(=O)c2cc(Cl)ccc2O1 (stereo not drawn)	-48%	?	20µM*	?	-5%	-0.6%	-31%	10µM*
Oc1[nH]c2ccccc2c1N=Nc1c(F)c(F)c(Cl)c(F)c1F	-1%	-15%	-5%	·	·	·	2%	·
CC1=NN(C(=O)c2ccc(Cn3cc([N+](=O)[O-])cn3)cc2)C(O)(C(F)(F)F)C1 (stereo not drawn)	22%	-1%	0%	-5%	1%	-1.4%	12%	8%
O=C1OC(/C=C/c2ccccc2)=NC/1=C/c1ccco1	3%	5%	1%	-9%	3.2µM*	4µM*	3%	25%
COc1ccc(NC(=S)N2CCN(c3ccccc3)CC2)c(OC)c1	-6%	0%	-9%	6%[46.1 µM]	·	·	0%	4%[46.1 µM]
COc1ccc(/C=C/C(=O)OCC(=O)NCc2ccco2)cc1OC	-8%	-1%	2%	-7%	-6%	-7.5%	8%	-2%
CC1CCCCC1NC(=O)COC(=O)COc1ccccc1Cl (stereo not drawn)	-5%	8%	22%	15%	·	·	·	?
Cc1ccc(N(C(=O)c2csnn2)C(C(=O)NC2CCCCC2)c2ccncc2)c(C)c1 (stereo not drawn)	-2%	1%	11%	·	·	·	-5%	15%[46.1 µM]
COc1ccc(-c2oc(=O)n(C)c2-c2ccc(OC)cc2)cc1	-1%	6%	-8%	?	·	·	-6%	?
CCN(CCNC(=O)Cn1c(=O)sc2ccccc21)c1ccccc1	3%	1%	-3%	·	2%	1.5%	-7%	-3%
CC1Cc2ccccc2N1C(=O)CSc1nnc2c(n1)[nH]c1ccccc12 (stereo not drawn)	10%	3%	14µM*	-11%	1%	-0.5%	0%	-13%
Cc1ccc(Nc2c(-c3ccccn3)nc3ccc(Br)cn23)cc1	·	·	-21%	18%[46.1 µM]	0%	0.1%	·	0%[46.1 µM]
COc1ccc(C(=O)NC(=S)NNC(=O)[C@H]2C[C@@H]2c2ccccc2)cc1OC	0%	-16%	-29%	?	·	·	4%	?
Cc1ccc(C(CNS(=O)(=O)c2ccc(Cl)cc2)N2CCN(C)CC2)cc1 (stereo not drawn)	0%	-24%	-9%	-2%	·	·	·	?
Cc1ccccc1OCCSc1nc2ccc(NC(=O)c3ccccc3)cc2s1	·	·	-27%	16%[46.1 µM]	-13%	-1.6%	·	-18%[46.1 µM]
Cc1ccccc1C(=O)O/N=C(\c1ccccc1)c1ccccn1	1%	-3%	-9%	7%	2%	-3.0%	-27%	?
COc1ccc(NC(=O)c2c(C)oc3c2CCCC3)cc1	-1%	3%	3%	8%	3%	1.9%	-13%	-9%
Cc1cccc(CSCCNC(=O)c2ccc(CN3CCOCC3)cc2)c1	12%	16%	?	1%	3%	-1.8%	7%	15%
COc1ccc(CNC(=O)CN(c2cc(C)cc(C)c2)S(=O)(=O)c2c(C)[nH]c(=O)[nH]c2=O)cc1	-3%	0%	13%&8%	13%&0%[46.1 µM]	-2%	0.7%	-3%	?
Cc1cccc(N(CC(=O)NC2CCCC2)C(=O)CS(=O)CC(=O)Nc2ccc3c(c2)OCO3)c1C (stereo not drawn)	-10%	-23%	12%	3%	19%	0.2%	-2%	?
CCOc1ccc(N2C(=O)Nc3ccccc3C2(O)C(=O)NCc2ccc(OC)cc2)cc1 (stereo not drawn)	-3%	1%	2%	1%	·	·	·	3%
O=C(c1ccc(F)cc1)N1CCN(Cc2ccccc2)CC1	2%	10%	-17%	9%	·	·	10%	19%
CCN(CC(=O)Nc1ccc(OC)cc1)CC(=O)Nc1ccc(Cl)cc1F	-6%	8%	-6%	-21%	·	·	-3%	-1%
Cc1cc2ccccc2n1CCNC(=O)c1cc(C(F)(F)F)cc(C(F)(F)F)c1	·	·	0%	1%[46.1 µM]	18%	-0.8%	·	-10%[46.1 µM]
Cc1cc2c(C)cc(=O)oc2c2c1NCCC2	·	0%	-8%	13%	-11%	25µM*	-29%	6%
CC(=O)c1ccc(N2CCN(CC(=O)Nc3ccccc3N3CCOCC3)CC2)cc1	3%	0%	?	?	·	·	·	?
COc1ccccc1NS(=O)(=O)c1cc(N/C(=N\S(=O)(=O)c2ccccc2)c2ccc(F)cc2)ccc1Cl	-1%	-2%	36%[activator]	?	?	0.0%	-11%	?
Cc1nn(CCC(=O)N2CCN(S(=O)(=O)c3ccccc3)CC2)c(C)c1C	12%	-5%	19%	·	·	·	4%	-2%[46.1 µM]
O=C(O)CN1C(=O)/C(=C\c2cc([N+](=O)[O-])ccc2OCc2ccccc2Cl)SC1=S	7%	6%	6%	-4%[46.1 µM]	·	·	19%	9%[46.1 µM]
Cc1c(/C=C2\SC(=Nc3cccc(C(=O)O)c3)NC2=O)c2ccccc2n1C	2%	17%	16%	·	·	·	5%	·
COc1ccc2cc(CNc3ccccc3)c(=O)n(CC(=O)Nc3ccc(C)cc3C)c2c1	·	·	-12%	?	7%	-3.2%	·	·
CCO[C@H]1OC(C(=O)N2CCN(Cc3ccc4c(c3)OCO4)CC2)=C[C@@H](c2ccc3c(c2)OCO3)[C@@H]1CCCO	0%	-7%	?	·	·	·	-7%	·
COCCCNc1nc(N)c([N+](=O)[O-])c(NCc2ccccc2)n1	-1%	6%	-18%	·	·	·	-4%	·
O=C(COC(=O)CSc1cccc2cccc(Cl)c12)Nc1ncc(C(F)(F)F)cc1Cl	-31%	9%	-27%	10%	25µM*	?	-20%	0%
Cn1ncc(Br)c1C(=O)Nc1cccc(C(F)(F)F)c1	-3%	8%	-12%	-18%	·	·	-32%	-11%[46.1 µM]
CCCc1nnc(NC(=O)c2oc3ccccc3c2COCC)s1	-1%	3%	2%	0%	·	·	·	15%[46.1 µM]
CC(=O)c1ccc(S(=O)(=O)N(C)CC(=O)Nc2cc(C)on2)cc1	12%	4%	5%	9%	·	·	·	2%
CCN(CC)c1cc(C)c2ccccc2n1	?	13%	5%	-3%	-10%	-4.5%	-7%	-1%
NC(=O)C1CCCN(C(=O)CCc2nnc(C3(c4ccc(Cl)cc4)CCC3)o2)C1 (stereo not drawn)	6%	32%	4%	3%	·	·	0%	12%
CCc1cc(C(=O)Nc2cc(Cl)ccc2N2CCN(C)CC2)sc1C	-7%	-14%	-21%	4%	·	·	·	11%[46.1 µM]
CC(NC(=O)c1ccccc1Cl)C1CC2CCC1C2 (stereo not drawn)	-4%	19%	1%	?	·	·	-23%	6%[46.1 µM]
CCN(CC)C(=O)C(C(=O)c1cccc([N+](=O)[O-])c1)n1cc(Cl)ccc1=O (stereo not drawn)	0%	24%	-8%	3%	·	·	7%	9%
CCC(C)NC(=O)C1CCCN(S(=O)(=O)c2ccc3c(c2)CC(C)N3C(C)=O)C1 (stereo not drawn)	0%	-1%	-21%	·	·	·	-6%	·
COc1ccccc1-n1nnnc1SCC(=O)NCC1CCCO1 (stereo not drawn)	-2%	-17%	-12%	-8%	·	·	·	19%
COc1ccc(C(=O)NCC(=O)OCC(=O)NCCC2=CCCCC2)cc1	-1%	2%	-19%	-5%	·	·	-3%	28%
COc1cccc(-n2c(Cc3cc(=O)[nH]c(=O)[nH]3)nnc2SCc2cccc(C(F)(F)F)c2)c1	2%	8%	15%	·	·	·	11%	·
O=C(CNC(=O)c1cccc(F)c1)N/N=C/c1ccc(O)c([N+](=O)[O-])c1	-11%	9%	-7%	-2%	-4%	-8.5%	-2%	2%
COC(=O)c1ccc(NC(=O)COc2ccc(S(=O)(=O)NC(C)(C)C)cc2)cc1	1%	2%	22%	2%	·	·	·	-15%[46.1 µM]
